Screening data as filed in PubChem.
ClpP mod: qHTS Assay for Activators of ClpP. ATP-dependent Clp protease proteolytic subunit (Bacillus subtilis (strain 168)), P80244. purified B. subtilis ClpP, FRET peptide cleavage, 20 min. Potency, µM (doses to about 57.5 µM), inactives show top-dose activity change, negative = active. 340,000 tested, 1.9% active. AID 651965, 2013; active = well fitted falling curve with a large enough effect; inconclusive = small, poorly fitted or top-dose-only effect; inactive = no such curve, though single readings can be large or run the other way; also: potency is read from the fitted curve at half-maximal effect; the source files actives as falling curves though it sought activators and does not explain the sign; nearly all actives have a fitted effect of over 65% in size; many hits overshoot -100%
Target sequence (P80244 whole entry, looked up): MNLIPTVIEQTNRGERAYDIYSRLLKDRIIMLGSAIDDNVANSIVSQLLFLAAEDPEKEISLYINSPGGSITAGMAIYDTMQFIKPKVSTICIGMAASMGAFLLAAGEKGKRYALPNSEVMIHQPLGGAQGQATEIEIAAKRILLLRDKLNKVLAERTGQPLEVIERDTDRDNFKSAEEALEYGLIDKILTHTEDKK
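ClpP 10 microg/mL final, pH 8 Tris/KCl buffer with BSA, glycerol, Tween-20; compound pinned in; FRET-FV substrate; RT 20 min; Ex320/Em430; ΔFRET vs ADEP 5.8 microM, DMSO, no enzyme.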
Sfp inh: qHTS Assay for Inhibitors of Bacillus subtilis Sfp phosphopantetheinyl transferase (PPTase); Potency, µM, for the others: max response, negative = inhibition, most hits filed as inhibitors; AID 1490, 2009; 310,000 tested, 3.5% active; 4'-phosphopantetheinyl transferase ffp (Bacillus subtilis), Q9F4F7; Biochemical Sfp PPTase activity, qHTS; active = well fitted inhibition curve with a large enough effect; inconclusive = small, poorly fitted or top-dose-only effect, or another doubt; inactive = no such curve, though single readings can be large or run the other way;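 also: the enzyme is Sfp with the accession as filed and its product quenches rhodamine fluorescence; potency is read from the fitted curve at half-maximal effect; 0% = enzyme reaction without inhibitor and -100% = no enzyme wells; top concentration of the series not given in the record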
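After 15 min at room temperature with compound, 15 nM Sfp received 5 uM rhodamine-CoA plus 12.5 uM BHQ-2-ybbR (50 mM Hepes pH 7.6, 10 mM MgCl2). Rate came from the fluorescence difference over 30 min, ex 525/em 598 nm.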
gsp antagonist: qHTS for Antagonists of gsp, the Etiologic Mutation Responsible for Fibrous Dysplasia/McCune-Albright Syndrome: qHTS; Potency, µM (titrated, usually from 76.9 µM), for the others: at the highest dose activity change, negative = inhibition, actives largely listed as inhibitors; AID 624288, 2012; gsp-mutant cells, cAMP HTRF, 30 min; control for the full effect not named in the record; 340,000 tested, 0.4% active; active = falling curve of any shape with a large fitted effect; inconclusive = falling curve, mostly with a smaller effect; inactive = flat or rising curve; cell line not stated here;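 also: intracellular cAMP measured with PDE inhibitor Ro 20-1724 present during compound exposure; potency is read from the fitted curve at half-maximal effect; % is scaled to controls: 0 for no effect and ±100 for the full control effect; nearly all actives have a fitted effect of over 65% in size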
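G418-selected cells were plated in DMEM/10% FBS for 16-24 h at 37C, then treated with compounds plus the PDE inhibitor […] (300 uM solution added) for 30 min at 37C. Intracellular cAMP was measured by HTRF after 30 min lysis at room temperature.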
Menin MLL FP FL: qHTS Assay for Inhibitors Targeting the Menin-MLL Interaction in MLL Related Leukemias: Competition With Fluorescein Labeled MLL-derived Peptide; FP activity change, % at 61.4 µM; 290,000 tested, under 10 active; AID 1766, 2009; Fluorescence polarization, fluorescein-MLL peptide displacement from menin; inconclusive = falling polarisation curve, or a change in total fluorescence; inactive = total fluorescence flat and polarisation flat or rising; no compound was filed as active; the % refers to the polarisation; negative = inhibition;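 also: % of control where 0% means no effect; inhibitors lower the polarisation; unlabelled MLL peptide was the positive control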
CtBP-E1A inh: qHTS Assay for Inhibitors of the CtBP/E1A Interaction; CtBP / adenovirus E1A interaction (AlphaScreen); AlphaScreen GST-E1A/His-CtBP binding, 1536-well; stronger effect = lower value; control for the full effect not named in the record; activity change, % (no concentration beside the values); 340,000 tested, 0.49% active; in the data active means activity change below about -65%; inconclusive means about -30% to -65%; inactive means above about -30%; also: % is scaled to controls: 0 for no effect and ±100 for the full control effect; compound concentration not given in the record
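GST-E1A and His-tagged CtBP (125 nM each as 5X stock) were preincubated with pin-transferred compound for 2 h at 37 °C in the dark, then glutathione donor and nickel acceptor beads were added for 1 h before AlphaScreen reading.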
gsp agonist: qHTS for Agonist of gsp, the Etiologic Mutation Responsible for Fibrous Dysplasia/McCune-Albright Syndrome: qHTS | gsp mutant cells, cAMP HTRF, 30 min; control for the full effect not named in the record | Potency, µM (highest dose often 76.9 µM), inactives show at the top dose activation (cAMP increase), actives largely listed as activators | 340,000 tested, 0.13% active | AID 624287, 2012; active = well fitted activation curve with a large enough effect; inconclusive = small, poorly fitted or top-dose-only effect, or another doubt; inactive = no such curve, though single readings can be large or run the other way; cell line not stated here;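 also: phosphodiesterase inhibitor Ro 20-1724 added with compounds to block cAMP breakdown; potency is read from the fitted curve at half-maximal effect; nearly all actives have a fitted effect of over 60% in size; about a fifth of the inactives were tested at one dose only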
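Cells in DMEM/10% FBS with G418 were pretreated with compounds in DMSO plus […] (300 uM stock) for 30 min at 37C. cAMP was measured by HTRF (cAMP-d2 plus anti-cAMP antibody-K) after 30 min at room temperature.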
TRPV1 potentiator: HTS Assay for Compounds that Act as Potentiators of the Vanilloid Receptor 1 | Transient receptor potential cation channel subfamily V member 1 (Homo sapiens), Q8NER1 | TRPV1-expressing cells, Fluo-8 calcium influx, capsaicin EC20 potentiation; host cell line not named in the record; control for the full effect not named in the record | potentiation, % at 8.33 µM | 320,000 tested, 0.02% active; active means potentiation above 80%; inconclusive means 30% to 80%; inactive means below 30%; also: 0% is about no effect
Target sequence (Q8NER1 whole entry, looked up): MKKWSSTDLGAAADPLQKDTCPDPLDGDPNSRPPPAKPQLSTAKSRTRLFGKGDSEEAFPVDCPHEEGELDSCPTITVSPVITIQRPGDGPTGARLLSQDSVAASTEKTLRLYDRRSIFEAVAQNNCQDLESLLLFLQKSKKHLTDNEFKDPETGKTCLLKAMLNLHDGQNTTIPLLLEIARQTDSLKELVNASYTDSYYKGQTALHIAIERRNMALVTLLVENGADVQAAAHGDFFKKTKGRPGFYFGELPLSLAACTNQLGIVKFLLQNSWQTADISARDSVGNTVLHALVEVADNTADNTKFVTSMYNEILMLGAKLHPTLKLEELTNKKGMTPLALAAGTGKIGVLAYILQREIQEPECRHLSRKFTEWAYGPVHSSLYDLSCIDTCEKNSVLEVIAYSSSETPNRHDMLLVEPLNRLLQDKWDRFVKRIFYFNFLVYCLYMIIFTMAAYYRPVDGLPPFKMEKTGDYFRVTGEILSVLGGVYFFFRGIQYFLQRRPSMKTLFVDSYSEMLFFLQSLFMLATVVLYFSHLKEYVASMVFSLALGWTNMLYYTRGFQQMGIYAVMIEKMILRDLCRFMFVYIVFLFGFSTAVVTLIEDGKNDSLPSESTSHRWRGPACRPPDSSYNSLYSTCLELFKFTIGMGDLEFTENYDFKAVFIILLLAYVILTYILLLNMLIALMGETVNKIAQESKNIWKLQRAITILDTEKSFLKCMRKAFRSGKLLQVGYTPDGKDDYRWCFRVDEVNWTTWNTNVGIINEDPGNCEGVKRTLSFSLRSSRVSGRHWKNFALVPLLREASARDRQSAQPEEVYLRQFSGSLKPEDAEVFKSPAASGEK
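TRPV1-expressing cells were cultured overnight at 35.5C and loaded with Fluo-8 calcium dye for 40 to 90 min at room temperature. After a 10 s baseline, compound was added and calcium influx was read kinetically for 3 min (ex 480/em 520 nm).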
Active calls of the source: *; ? = inconclusive; · = no result given; [ ] = another dose, or the depositor's remark. Rows are unselected (roughly 5.3% active in at least one column).

SMILES	ClpP mod	Sfp inh	gsp antagonist	Menin MLL FP FL	CtBP-E1A inh	gsp agonist	TRPV1 potentiator
Clc1cnc(N/N=C/c2cccs2)c(Cl)c1	-0.6%	-11%	0%	0.2	21	-44%[inhibitor]	9
CC(O)[C@H]1CC[C@H]2[C@@H]3CC[C@H]4C[C@@H](O)CC[C@]4(C)[C@H]3C(=O)C[C@]12C (some centres not stated)	0.4%	·	0%	·	0	·	?
c1ccc(OCCSc2nnnn2C2CCCCC2)cc1	-0.7%	-5%	-12%	2.0	15	12%	-13
COc1ccc(C(=O)OCC(=O)Nc2ccc(N3CCOCC3)cc2)cc1OC	-0.2%	·	0%	·	2	-3%	2
CCOC(=O)N1CCN(C(=O)c2cccn3c(=O)c4cc(Cl)ccc4nc23)CC1	-14%	-3%	14%	0.7	11	27%	·
O=C1c2ccccc2-c2c1c1ccccc1c(=O)n2-c1ccccc1	-4.7%	·	-10%	·	0	9%	·
Cc1cccc2c(=O)c(C(=O)NCCc3ccccc3)c[nH]c12	0.5%	6%	-14%	-0.3	9	-2%[15.4 µM]	3
CCn1c(NC(=O)c2ccc(COc3ccc(C)cc3[N+](=O)[O-])o2)nc2ccccc21	-1.1%	16%	-2%	-1.4	0	-61%[inhibitor]	28
Cc1cc(-c2nnc(SCC(=O)NC3CC3)n2C(C)C)cs1	-0.4%	7%	12%	-0.9	5	-1%	3
O=C1NC(=S)NC1(c1ccccc1)c1ccccc1	-1.9%	·	13%	·	-3	13%[15.4 µM]	·
COc1ccc(CCNC(=O)C2=CCN(S(=O)(=O)c3ccc(F)cc3)CC2)cc1OC	-0.4%	1%	1%	-8.4	-18	?	8
Cc1cc(C)cc(-n2ccnc2SCC(=O)Nc2ccc3c(c2)OCCO3)c1	-18%	-1%	-6%	2.8	-29	17%	-17
CCN(CC)S(=O)(=O)c1cc(NC(=O)c2cc([N+](=O)[O-])ccc2N2CCOCC2)ccc1C	2.0%	16%	-23%	·	13	-7%[15.4 µM]	-4
O=C(NCCCN1CCOCC1)c1cc(-c2ccc(F)cc2)on1	-0.8%	3%	7%	0.7	4	12%	0
CSc1nccc(NC(=O)c2cccc(Br)c2)n1	·	0%	-13%	-2.0	9	6%	-13
CCc1ccc(C(=O)c2ccccc2C(=O)O)s1	0.4%	26%	-19%	-1.5	1	25%	3
COC(=O)c1cccc(Cn2cc([N+](=O)[O-])cn2)c1	·	15%	·	-4.2	·	·	4
Cc1ccc2nc(COc3ccc(Cl)cc3)cc(=O)n2c1	?	2%	0%	-0.9	-1	23%	13
CC(=O)c1ccc(S(=O)(=O)N(C)CC(=O)NCC2CCCCC2)cc1	·	20%	3%	1.0	-5	27%	4
O=C(NCC1CC1)c1ccc2c3n(nc2c1)-c1ccccc1CO3	4.2%	-10%	-3%	-0.9	-11	·	18
CC(C)Oc1ccc(C(=O)NCCCNC(=O)c2cccnc2)cc1	·	12%	3%	0.8	6	-1%[15.4 µM]	-3
O=S(=O)(Nc1cccnc1)c1cccc(C(F)(F)F)c1	-0.2%	8%	5%	0.1	-2	33%	0
Cn1c(SC/C=C/c2ccccc2)nnc1-c1ccco1	-2.7%	-1%	-7%	-1.1	-3	-8%	20
Cc1ccc(CNC(=O)C23CN(Cc4ccccc4)CC2C(c2ccc([N+](=O)[O-])cc2)=NO3)o1 (configuration not stated)	-2.7%	-10%	-3%	0.9	0	-98%[inhibitor]	5
O=C1OCCC1Sc1nc2cc(Cl)ccc2n1Cc1ccccc1 (configuration not stated)	-2.1%	-14%	-1%	2.2	3	11%	1
(cont.)
SMILES	ClpP mod	Sfp inh	gsp antagonist	Menin MLL FP FL	CtBP-E1A inh	gsp agonist	TRPV1 potentiator
CCCOc1ccc(-c2nnc(-c3ccncc3)o2)cc1	?	3%	9%	2.9	-16	-2%	-8
CC(CC(=O)N(C)C1CCCCC1)S(=O)(=O)c1ccc2c(c1)NC(=O)CO2 (configuration not stated)	1.5%	11%	-5%	0.1	5	?	-19
O=C(Nc1ccc(OC(F)(F)F)cc1)c1ccccc1-n1cnnn1	0.5%	·	-10%	·	1	-38%[inhibitor]	·
CC1(c2ccccc2Br)NC(=O)N(CC(=O)NC2CCCCC2)C1=O (configuration not stated)	0.6%	·	4%	·	3	-47%[inhibitor]	-2
CCN(CC)CP(=O)(c1ccccc1)c1ccccc1	-0.6%	9%	6%	-6.0	6	-5%	-4
N#Cc1ccc(C23OCCN2CCn2c3c3ccccc3[n+]2[O-])cc1 (configuration not stated)	-9.2%	·	1%	·	·	2%	·
COc1ccc(Cl)cc1S(=O)(=O)N(C)CC(=O)N1CCCC1	0.1%	14%	4%	0.5	·	-1%	0
COc1ccccc1OCc1ccc(C(=O)Nc2ccccc2)cc1	0.7%	·	3%	·	·	?	-19
CC(=O)NC(Cc1ccc(C)cc1)C(=O)NC1CCN(S(=O)(=O)c2ccccc2)CC1 (configuration not stated)	0.8%	10%	-1%	·	1	-11%	2
Nc1c(Cl)cc(C2=NCCn3c2c2ccc([N+](=O)[O-])cc2[n+]3[O-])cc1Cl	-3.2%	·	-17%	·	·	15%	0
Cc1ccc(-n2[nH]c(C)c(CCC#N)c2=O)cc1	-6.5%	22%	8%	-2.3	-7	-11%[15.4 µM]	-11
COc1ccc(OC)c(NC(=O)c2cccc(Cn3cc(Br)c([N+](=O)[O-])n3)c2)c1	-3.0%	-12%	-13%	-2.1	-26	9%	-12
O=C(NNC(=O)c1cccnc1SCc1cccc([N+](=O)[O-])c1)c1cccnc1	0.0%	2%	8%	2.9	10	5%[15.4 µM]	13
COC(CNC(=O)c1ccc2nc3ccccc3c(=O)n2c1)OC	·	21%	3%	2.7	?	?	-17
CN(C)c1ccc2c(=O)[nH][nH]c(=O)c2c1	·	2%	-2%	-8.7	1	-10%[15.4 µM]	-15
COCC(C)NS(=O)(=O)c1ccc(NC(=O)C(Cc2ccccc2)NC(N)=O)cc1 (configuration not stated)	1.7%	11%	8%	-0.7	0	-3%	2
Cc1cccn2c(=O)nc(SCC(=O)NCc3ccc4c(c3)OCO4)nc12	·	·	8%	·	2	34%[15.4 µM]	?
COc1cccc(OC)c1OC(=O)c1cnccn1	·	13%	5%	-0.3	0	20%[15.4 µM]	-1
CCOCc1nnc(NC(C)=O)s1	0.1%	19%	6%	0.9	1	-26%	-1
CCc1ccc(C(=O)OCC(=O)NCCNC(=O)COC(=O)c2ccc(CC)cc2)cc1	0.9%	18%	12%	·	11	-55%[inhibitor]	-9
CC(/C=N/NC(=O)c1ccco1)=C\c1ccccc1	·	11%	-6%	-8.2	4	-17%	-1
Cc1ccc(C)n1-c1cc([N+](=O)[O-])ccc1-n1ccnc1	·	13%	-2%	0.3	3	-20%	-8
Cc1cc(NC(=O)CSc2nnc(Cn3c(=O)sc4ccccc43)n2-c2ccccc2C)no1	-1.8%	12%	-7%	-0.4	-21	-23%	25
COc1ccc(Br)c(C(=O)OCC(=O)NC2CCCCCCC2)c1	0.7%	·	·	·	3	0%	·
O=C(C1=C(O)C(=O)N(CCN2CCOCC2)C1c1ccc([N+](=O)[O-])cc1)c1cccs1 (configuration not stated)	·	-7%	5%	1.2	-11	-8%	-7
Remaining list, next part.
SMILES	ClpP mod	Sfp inh	gsp antagonist	Menin MLL FP FL	CtBP-E1A inh	gsp agonist	TRPV1 potentiator
O=C(CSc1nnc(-c2ccncc2)n1CCc1ccccc1)N1CCCC1	·	11%	·	0.1	·	·	1
CCOC(=O)CCCCC(=O)c1[nH]c(=O)[nH]c1CN1CCOCC1	-0.6%	8%	1%	-0.5	6	-39%[inhibitor]	4
CC(C)(C)c1ccc(C(=O)NCC(=O)OCC(=O)Nc2ccc3c(c2)OCCO3)cc1	0.0%	-1%	-9%	3.2	·	1%	2
O=C(O)C1CCCCC1C(=O)Nc1ccc(F)c(F)c1 (configuration not stated)	-1.1%	3%	12%	·	0	-28%	-22
Cc1ccoc1C(=O)NCCNc1ccc(Cl)cc1[N+](=O)[O-]	3.5%	-22%	-20%	1.9	-14	-1%	2
CCOc1ccc(-c2nnc3ccc(SCc4ccc(C(=O)OC)o4)nn23)cc1	-4.6%	11µM*	0%	9.7	-8	?	7
O=C(NC1CCCCC1)N1CCC(n2c(=O)[nH]c3ccccc32)CC1	1.0%	13%	-6%	2.5	-3	-86%[inhibitor]	-6
O=C(CCCCCCC(=O)NCc1ccccc1)NCc1ccccc1	0.6%	13%	-2%	-0.3	-15	-4%[15.4 µM]	-7
COc1ccc(CCNC(=S)N(C)C)cc1OC	·	7%	1%	4.8	-1	?	-17
COc1ccc(-c2sc3ccccc3c2C#CC2(O)CCCCC2)cc1	4.8%	-10%	-10%	5.9	8	·	-16
C[C@H]1[C@H](C)CC[C@]2(C(=O)O)CC[C@]3(C)C(=CC[C@@H]4[C@@]5(C)C[C@@H](O)[C@H](O)C(C)(C)[C@@H]5CC[C@]43C)[C@H]12	1.3%	3%	4%	8.1	·	17%	5
COc1cccc(/C=N/NC(=O)c2ccc3nc[nH]c3c2)c1O	-0.4%	30%[activator]	6%	2.5	-96*	27%	9
O=C(Nc1cccc(Cl)c1)c1ccc(NCC2CCCO2)c([N+](=O)[O-])c1 (configuration not stated)	0.2%	13%	-14%	?	·	29%	-1
CCc1cc2cc3c(cc2nc1SCC(=O)Nc1cc(OC)c(OC)cc1C(=O)O)OCO3	·	-18%	·	-2.3	·	·	11
